Screening data from PubChem BioAssay.
TRPML1 ag: agonists of human TRPML1 channel; Q9GZU1; TRPML1-expressing cells, Ca2+ dye fluorescence, FDSS; host cell line not named in the record; reference of the full effect not given here; activation, % (no concentration beside the values); actives 0.12% (n = 410,000); AID 624414; in the data active = activation above about 50%; inconclusive = about 30% to 50%; inactive = below about 30%; also: 0% is about no effect; the text of the record puts the active cut at 80%
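Agonist activity was taken from a 110 s kinetic Ca2+ dye read on the FDSS after pinning compounds onto TRPML1-DL cells. The cells were seeded at 1,500/well with Tet inducer, incubated about 16 h, then dye-loaded at room temperature.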
TRPML1 blocker: inhibitors of human TRPML1 channel; Q9GZU1; TRPML1-inducible cells, Ca2+ dye fluorescence, FDSS; hits give low values; inhibition of EC80 agonist-evoked calcium signal; activity change, negative = inhibition, % (concentration not given with the values); actives 0.02% (n = 390,000); in the data active means activity change below about -50%; inconclusive means about -30% to -50%; inactive means above about -30%;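 also: stimulus is agonist 54-4 at its EC80 concentration; % is scaled to controls: 0 for no effect and ±100 for the full control effect; compound concentration not given in the record; the text of the record puts the active cut at -80%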
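Calcium fluorescence in TRPML1-DL cells induced overnight with Tet: a 110 s read after compound pin addition, then a 110 s antagonist read after challenge with 54-4 at 4 uM final (EC80).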
TRPV1 potentiator: human TRPV1 potentiation; Q8NER1; TRPV1-expressing cells, Fluo-8 calcium influx, capsaicin EC20 potentiation; host cell line not named in the record; control for the full effect not named in the record; actives 0.02% (n = 320,000); potentiation, % at 8.33 µM; AID 540277; active means potentiation above 80%; inconclusive means 30% to 80%; inactive means below 30%; also: 0% is about no effect
Target sequence (Q8NER1 whole entry, looked up): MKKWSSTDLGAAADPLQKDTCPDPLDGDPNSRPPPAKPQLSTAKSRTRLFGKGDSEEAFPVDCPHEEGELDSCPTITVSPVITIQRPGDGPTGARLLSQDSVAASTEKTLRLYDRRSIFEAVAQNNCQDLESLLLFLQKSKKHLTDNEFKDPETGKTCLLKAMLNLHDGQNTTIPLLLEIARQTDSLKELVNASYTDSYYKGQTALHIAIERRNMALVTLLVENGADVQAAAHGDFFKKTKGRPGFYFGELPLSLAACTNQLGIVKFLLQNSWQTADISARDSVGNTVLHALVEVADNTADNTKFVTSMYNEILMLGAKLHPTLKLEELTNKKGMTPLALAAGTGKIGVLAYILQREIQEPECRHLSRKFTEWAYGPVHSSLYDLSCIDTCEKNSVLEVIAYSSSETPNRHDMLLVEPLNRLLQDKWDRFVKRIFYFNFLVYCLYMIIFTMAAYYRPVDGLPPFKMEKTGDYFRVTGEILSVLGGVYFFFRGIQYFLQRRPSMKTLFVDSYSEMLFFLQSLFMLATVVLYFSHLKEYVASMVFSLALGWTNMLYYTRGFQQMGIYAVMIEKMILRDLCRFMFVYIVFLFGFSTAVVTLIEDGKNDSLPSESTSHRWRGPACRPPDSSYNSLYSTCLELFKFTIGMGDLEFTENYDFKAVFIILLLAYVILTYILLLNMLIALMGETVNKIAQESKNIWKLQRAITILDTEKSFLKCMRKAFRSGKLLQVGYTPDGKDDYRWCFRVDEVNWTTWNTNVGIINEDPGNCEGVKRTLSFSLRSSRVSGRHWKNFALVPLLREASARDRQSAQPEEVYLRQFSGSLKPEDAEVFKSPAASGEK
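TRPV1-expressing cells were cultured overnight at 35.5C and loaded with Fluo-8 calcium dye for 40 to 90 min at room temperature. After a 10 s baseline, compound was added and calcium influx was read kinetically for 3 min (ex 480/em 520 nm).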
ClpP mod: qHTS Assay for Activators of ClpP | actives 1.9% (n = 340,000) | Potency, µM (titrated, usually from 57.5 µM), for inactives: top-dose activity change, negative = active | purified B. subtilis ClpP, FRET peptide cleavage, 20 min | AID 651965, 2013 | ATP-dependent Clp protease proteolytic subunit (Bacillus subtilis (strain 168)), P80244; active = well fitted falling curve with a large enough effect; inconclusive = small, poorly fitted or top-dose-only effect; inactive = no such curve, though single readings can be large or run the other way; also: potency is read from the fitted curve at half-maximal effect; the source files actives as falling curves though it sought activators and does not explain the sign; nearly all actives have a fitted effect of over 65% in size; many hits overshoot -100%
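Purified B. subtilis ClpP, 10 microg/mL final in Tris/HCl pH8 with KCl, BSA, glycerol and Tween-20, cleaved an Abz/nitrotyrosine-quenched decapeptide. Fluorescence (ex 320, em 430) was read at 0 and 20 min at room temperature. Delta was normalized to 5.8 microM ADEP and DMSO/no-enzyme controls.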
Menin-MLL FL inh: menin-MLL binding inhibition, fluorescein peptide; Fluorescence polarization, fluorescein-MLL peptide displacement from menin; FP activity change, % at 61.4 µM; AID 1766; 290,000 tested, under 10 active; inconclusive = falling polarisation curve, or a change in total fluorescence; inactive = total fluorescence flat and polarisation flat or rising; no compound was filed as active; the % refers to the polarisation; negative = inhibition;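 also: % of control where 0% means no effect; inhibitors lower the polarisation; unlabelled MLL peptide was the positive control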
PINK1 modulator: modulators of PINK1 expression. actives 0.2% (n = 410,000). Potency, µM (series often up to 76.6 µM), inactives show top-dose activation (PINK1 increase), hits mostly activators. PINK1 immunofluorescence, high-content cytometry, 24 h; active = well fitted activation curve with a large enough effect; inconclusive = small, poorly fitted or top-dose-only effect; inactive = flat fitted curve, though single readings scatter; cell line not stated here;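 also: potency is read from the fitted curve at half-maximal effect; % of control where 0% means no effect; nearly all actives have a fitted effect of over 65% in size; a mitochondrial uncoupler was the plate control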
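Readout is PINK1 immunofluorescence, quantified alongside mitochondrial, cell and nuclear markers by laser-scanning microplate cytometry. Cells from a stable line were exposed to compound titrations (5 concentrations) for 24 hours, with CCCP controls.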
Sfp inh: inhibitors of Bacillus subtilis Sfp phosphopantetheinyl transferase; Potency, µM, inactives show max response, negative = inhibition, actives largely listed as inhibitors; actives 3.5% (n = 310,000); Biochemical Sfp PPTase activity, qHTS; active = well fitted inhibition curve with a large enough effect; inconclusive = small, poorly fitted or top-dose-only effect, or another doubt; inactive = no such curve, though single readings can be large or run the other way;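 also: the enzyme is Sfp with the accession as filed and its product quenches rhodamine fluorescence; potency is read from the fitted curve at half-maximal effect; 0% = enzyme reaction without inhibitor and -100% = no enzyme wells; top concentration of the series not given in the record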
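Fluorescence-quenching assay with 15 nM Sfp, 5 uM rhodamine-CoA and 12.5 uM BHQ-2-labelled ybbR peptide in pH 7.6 Hepes/MgCl2 buffer. Enzyme was pre-incubated with compound for 15 min at room temperature. Rate was taken from the 30-min fluorescence change (525/598 nm).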
Starred values were filed as active, the others as inactive; ? = inconclusive; . = not tested or not shown; & = joins results of further samples; [ ] = remark or other dose.

SMILES	TRPML1 ag	TRPML1 blocker	TRPV1 potentiator	ClpP mod	Menin-MLL FL inh	PINK1 modulator	Sfp inh
COc1ccc(CNC(=S)Nc2ccc(OC)cc2)cc1	0.3	42	-20	-0.2%	4.7	?	12%
COc1cc(CNCCN(C)C)c(Br)cc1OCC(=O)NCc1ccccc1	0.9	26	-2	-2.3%	.	2.2%	9%
Cc1cn([C@H]2C[C@H](O)[C@@H](/C=C/C(=O)NCCc3cccnc3)O2)c(=O)[nH]c1=O	-0.1	15	.	-0.3%	.	3.1%	.
CCC(=O)NCCc1nc2cc(NC(=O)c3ccccc3OC)ccc2n1C	-0.8	0	9	-0.2%	3.6	2.4%[38.3 µM]	9%
CC[C@@](C)(NS(=O)(=O)OCC(Cl)(Cl)Cl)c1ccccc1	-0.6	5	19	-0.6%	-1.7	6.0%	1%
O=S(=O)(NCc1ccccc1)c1ccc(S(=O)(=O)N(Cc2ccccn2)C2CCCC2)cc1	1.8	11	14	-1.6%	0.4	-0.1%[38.3 µM]	12%
CCCCN(C=O)c1c(CC)nc2c(OCC(=O)N3CCOCC3)cccn12	0.3	.	.	-0.7%	.	-0.4%	.
COc1cccc(-c2nnc(SCC(=O)Nc3ccc(S(N)(=O)=O)cc3)n2C)c1	-1.0	-1	-7	-0.2%	0.9	-3.3%	16%
O=C(c1ccco1)N1CCN=C1SCc1ccc(F)cc1	0.0	-11	-2	0.4%	0.7	0.2%	17%
CCOc1ccccc1OCC(=O)Nc1ccc(Cl)cc1Cl	5.5	7	2	0.4%	5.7	1.1%	10%
Cc1c(NC(=O)c2cc(-c3ccc(F)cc3)on2)c(=O)n(-c2ccccc2)n1C	-1.5&0.0	-6&5	8	-0.2%&0.3%	-0.4	-0.1%&-0.6%	11%
CCN(CC1CCCO1)C(=O)c1cc(COc2ccccc2SC)on1 (stereo not given)	-0.6	-2	14	-2.3%	.	1.5%	7%
CCO[C@@H]1OC(C(=O)N2CCOCC2)=C[C@H](c2ccccc2)[C@H]1CCCO	0.4	?	?	1.9%	5.5	1.1%	9%
COc1ccc(OC)c(C2CC(=O)C3=C(C2)NC(=O)CC3c2ccc(O)c(OC)c2)c1 (stereo not given)	0.6	-1	1	-8.7%	3.8	-3.2%	22%
Cn1c(=O)c2c(nc(Oc3ccc4c(c3)OCO4)n2Cc2ccc(F)cc2)n(C)c1=O	-0.1	-2	-7	0.1%	0.3	23%[38.3 µM]	15%
COc1ccc(NC(=O)CN2C(=O)NC3(CCCC3)C2=O)c(OC)c1	0.0	-7	-4	.	1.9	1.6%	10%
COc1cc(CN2CCC(C(=O)N3CCN(c4ccccc4F)CC3)CC2)ccc1O	0.3	14	1	0.3%	0.3	-1.8%	-24%
COc1cc(C(=O)N(C)CCOc2ccccc2)ccc1OCC(=O)Nc1cccc(C(F)(F)F)c1	0.3	10	0	2.7%	.	0.2%	.
CS(=O)(=O)Nc1cccc(-c2cc(NCc3cccs3)ncn2)c1	.	.	.	.	0.2	-0.1%	2%
Cc1cccc(N(Cc2ccccc2F)S(C)(=O)=O)c1	1.9	4	2	-0.5%	-0.4	1.9%	6%
CN(C)C(=O)C1(c2ccccc2)CCN(S(=O)(=O)c2ccccc2)CC1	0.1	-3	-4	-3.5%	-3.3	-4.3%	20%
COc1ccccc1N1CCN(S(=O)(=O)c2ccc3c(c2)NC(=O)CS3)CC1	1.6	14	20	1.1%	.	1.4%	7%
COC(=O)/C(=C/c1ccccc1)NC(=O)c1ccco1	-0.2	-4	-5	-0.7%	2.6	0.1%	3%
COc1cc(C(=S)N2CCN(C(c3ccccc3)c3ccccc3)CC2)cc(OC)c1O	3.2	-12	-3	0.7%	4.2	?	16µM*
CC(C)CCNC(=O)NC(=O)COc1ncnc2sccc12	0.6	2	4	-1.7%	5.2	6.3%[38.3 µM]	5%

Five of these compounds in a different format:
SMILES | TRPML1 ag | TRPML1 blocker | TRPV1 potentiator | ClpP mod | Menin-MLL FL inh | PINK1 modulator | Sfp inh
CCOc1ccccc1OCC(=O)Nc1ccc(Cl)cc1Cl | 5.5 | 7 | 2 | 0.4% | 5.7 | 1.1% | 10%
CC(C)CCNC(=O)NC(=O)COc1ncnc2sccc12 | 0.6 | 2 | 4 | -1.7% | 5.2 | 6.3%[38.3 µM] | 5%
Cc1cccc(N(Cc2ccccc2F)S(C)(=O)=O)c1 | 1.9 | 4 | 2 | -0.5% | -0.4 | 1.9% | 6%
CC[C@@](C)(NS(=O)(=O)OCC(Cl)(Cl)Cl)c1ccccc1 | -0.6 | 5 | 19 | -0.6% | -1.7 | 6.0% | 1%
CN(C)C(=O)C1(c2ccccc2)CCN(S(=O)(=O)c2ccccc2)CC1 | 0.1 | -3 | -4 | -3.5% | -3.3 | -4.3% | 20%

Returning to the listing, starting two compounds before the break.
SMILES	TRPML1 ag	TRPML1 blocker	TRPV1 potentiator	ClpP mod	Menin-MLL FL inh	PINK1 modulator	Sfp inh
COc1cc(C(=S)N2CCN(C(c3ccccc3)c3ccccc3)CC2)cc(OC)c1O	3.2	-12	-3	0.7%	4.2	?	16µM*
CC(C)CCNC(=O)NC(=O)COc1ncnc2sccc12	0.6	2	4	-1.7%	5.2	6.3%[38.3 µM]	5%
O=C(NCc1ccc2c(c1)CCN2C(=O)c1ccccc1)c1ccco1	1.1	4	.	-2.9%	.	1.6%	.
CC1CCN(C(=O)c2ccc(SCc3ccccc3F)c([N+](=O)[O-])c2)CC1	-0.2	-6	-9	0.0%	4.8	0.7%	-19%
O=C(NCCOc1ccccc1Cl)C(=O)c1c[nH]c2ccccc12	0.9	28	-15	?	4.4	-0.1%	2%
COc1cc(OC)cc(C(=O)Nc2c(C)nn(-c3ccccc3)c2C)c1	-0.8	0	21	.	5.0	12%	15%
O=C(COC(=O)c1cccc(Br)c1)Nc1cccc(S(=O)(=O)N2CCCCC2)c1	0.9	-8	.	-0.4%	.	2.5%	.
NC(=O)c1cc(C(=O)Cc2ccccc2)c[nH]1	-0.9	-3	29	-3.6%	-7.8	0.7%	7%
Cc1cc(C)n2cc(CSc3ccc(Br)cc3)nc2n1	-0.8	3	15	.	-0.4	1.7%	-1%
CCOC(=O)C1CCCN(C(=O)c2sc(-c3ccccc3)nc2C)CC1 (stereo not given)	-0.4	.	.	0.6%	.	0.6%	.
Cc1cccc(OCc2n[nH]c(=S)n2Cc2ccccc2)c1	2.3	26	-4	.	-1.5	4.4%	11%
Cc1ccc(S(=O)(=O)N2CCc3cc4c(cc3C2C)OCCCO4)cc1 (stereo not given)	4.2	28	?	-4.9%	.	1.4%	-1%
CC1(C(=O)NS(=O)(=O)c2cccc(OC(F)F)c2)CCN1C(=O)COc1ccc(Cl)cc1 (stereo not given)	-0.4	.	.	0.8%	.	-0.4%	.
COc1ccc(NC(=O)CSc2nnnn2-c2ccc(F)cc2)cc1	1.3	-8	-10	.	-0.3	13%	13%
Cn1c(=O)c2c(n(Cc3ccccc3)c1=O)NC(=O)C2CC(=O)O (stereo not given)	-0.1	-12	2	1.2%	0.6	0.2%	1%
CCCCNC(=O)NS(=O)(=O)c1ccc(C(=O)OC)o1	-0.8	47	4	2.0%	-3.7	3.8%	-3%
CCOC(=O)C1(CCc2ccccc2)CCN(Cc2nccn2CC)CC1	1.7	-19	-17	.	-0.9	-0.8%	12%
CN(C)S(=O)(=O)Nc1ccc2c(c1)Cc1ccccc1-2	3.6	1	-2	-19%	2.7	-1.7%[38.3 µM]	7%
COC(=O)C1=CN(c2cccc(C)c2)C=C(C(=O)OC)C1c1cc(OC)c(O)c([N+](=O)[O-])c1	1.8	1	-28	0.1%	1.7	2.1%	-17%
COc1ccc(NC(=O)CN2C(=O)NC(C)(C3CC3)C2=O)c(OC)c1 (stereo not given)	-0.1	4	0	0.4%	.	-1.1%	.
COc1ccc(NC2=Nc3ccccc3CC2)cc1	0.2	-6	-1	-0.4%	2.7	.	17%
CCn1c(SCC(=O)Nc2cccc(C)c2)nc2ccccc2c1=O	3.1	17	-9	-0.8%	8.8	3.0%	8%
